Mtb hypoxia inh = PubChem AID 1159583 | fluorescence inhibition, % (concentration not given with the values) | 300,000 tested, 0.1% active | M. tuberculosis hypoxia-regulated fluorescent reporter, fluorescence;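 active = 35 to 45% if threefold the growth effect, above 45% if 1.5-fold the growth effect; inactive = the rest, general growth blockers included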;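 also: wells of about 50 µL received 100 nL stock; 0% = vehicle wells and 100% = reference inhibitor wells; whole bacteria with a GFP reporter of the hypoxia response; strong numbers were not always called active; many hits fall short of the cut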
PrP 5UTR inh = inhibition of PrP 5' UTR reporter expression; cell-based PrP 5' UTR mRNA reporter, plate reader; inhibition, % (concentration not given with the values); AID 488862, 2010; 340,000 tested, 0.35% active;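 active = every replicate at 50% or more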;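 also: 0 = median of the neutral control wells; tested in H4 reporter cells; numbers are from one replicate; inactives centre near -14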
ugtP null kill = growth inhibition of ugtP-null S. aureus, primary screen, RN4220 ugtP deletion, OD600; 16 h; some inactives read as strong as hits; growth inhibition, % (concentration not given with the values); 330,000 tested, 0.54% active;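 active = z-score under -3 and OD600 up to 0.15 on both plates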;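 also: plate controls were untreated wells for no effect and antibiotic for full effect; wells of about 80 µL received 100 nL stock; the first replicate is given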
BJeLR lethal = MLPCN primary cell-based screen for lethality selective to Ras in HRASV12 cells; BJeLR (HRASV12) viability, CellTiter-Glo ATP luminescence, 48 h; reference of the scale not given here; inhibition, % (no concentration beside the values); 300,000 tested, 0.17% active;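 active = replicate mean above 50%; inconclusive = above 50% but judged a plate artefact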;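 also: 50 nL library stock added to about 25 µL; numbers are from one replicate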
Bead autofluor = flagged as autofluorescent in microsphere protease counterscreen | compound autofluorescence counterscreen, microsphere flow cytometry; stronger effect = higher value | fluorescence intensity (concentration not given with the values) | 360,000 tested, 3.1% active;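 active = at least 3 SD above the mean of all compounds, about 16000 in these data; inconclusive = too few beads counted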;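 also: 100 nL of 1 mM stock went into each well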
RN4220 kill = growth inhibition of S. aureus RN4220, primary screen, OD600. 16 h. 330,000 tested, 0.33% active. inhibition, % (concentration not given with the values). AID 1259311, 2017;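 active = z-score of -3 or lower and OD600 up to 0.18 on both plates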;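 also: plate controls were untreated cells for no effect and reference antibiotic for full effect; stock transfer was 100 nL into about 80 µL; one replicate is shown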
Mtb hypoxia inh growth = recorded beside Mtb hypoxia inh, whose call it bears; growth inhibition, %; measured here: M. tuberculosis growth (absorbance);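 0% = vehicle and 100% = reference antibiotic; read after six days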
An asterisk follows results filed as active; u = inconclusive; x = no result given.

No.	SMILES	Mtb hypoxia inh	Mtb hypoxia inh growth	PrP 5UTR inh	ugtP null kill
1	CCOC(=O)c1nnn(-c2nn3nnnc3c3ccccc23)c1C	11	6	-26	16
2	Cc1cc2c(cc1S(=O)(=O)C(C)CC(=O)NCc1ccco1)OCC(=O)N2 (stereo unspecified)	11	1	-2	10
3	COCCn1c(SCC(=O)Nc2ccc(C)cc2)nc2c(oc3ccccc32)c1=O	13	8	-12	-8
4	O=C(Cn1c(-c2ccccn2)nc2ccccc21)NN=Cc1ccccn1	3	10	x	6
5	COc1ccc(NC(=O)c2oc3ccc(S(=O)(=O)N4CCOCC4)cc3c2C)c(OC)c1	4	-8	-14	6
6	COC(=O)c1cc(Cl)c(NC(=O)/C=C/c2ccc(Cl)cc2Cl)cc1OC	-1	9	-36	-15
7	Cc1onc(-c2ccccc2)c1CNC(=O)Nc1cccc(Cl)c1	15	2	-6	-8
8	CC(=O)Nc1ccc(S(=O)(=O)NCC2CCC(C(=O)NCCCOC(C)C)CC2)cc1 (stereo unspecified)	7	6	x	2

No.	BJeLR lethal	Bead autofluor	RN4220 kill
1	-6	6501	1.1
2	-12	4573	4.1
3	5	2530	2.4
4	x	x	-0.2
5	x	x	1.5
6	7	8228	3.2
7	-4	4482	-16
8	-1	x	2.7

Later entries
No.	SMILES	Mtb hypoxia inh	Mtb hypoxia inh growth	PrP 5UTR inh	ugtP null kill
9	CCOC(=O)c1ccc(NC(=O)CC2C(=O)OCCN2CC)cc1 (stereo unspecified)	9	8	-6	5
10	O=[N+]([O-])c1ccc2nc(-c3cccnc3)[nH]c2c1	11	11	-18	11
11	CC(C)NC(=O)C1(N2C(=O)c3ccccc3C2=O)CCCC1	2	11	2	-5
12	Nc1c(C(=O)N2CCCC2)sc2nc(-c3ccccc3)ccc12	4	12	-106	-5
13	COc1cc(C(C)=O)ccc1Oc1ncnc2c1cnn2-c1ccccc1	15	4	-4	7
14	C[C@@H](C[C@@H](O)[C@H](O)C(C)(C)O)[C@@H]1CC[C@]2(C)C3=CC[C@H]4C(C)(C)C(=O)CC[C@]4(C)[C@H]3CC[C@@]12C	x	x	-12	x
15	COc1ccc(C(=O)Oc2c(CN3CCOCC3)cc(Cl)c3cccnc23)cc1OC	4	3	x	9
16	CN(C)c1ccc(CNC(=O)c2ccc(CNc3c(N4CCCCC4)c(=O)c3=O)cc2)cc1	-17	4	5	6

No.	BJeLR lethal	Bead autofluor	RN4220 kill
9	-8	2519	8.3
10	-9	3441	-0.4
11	x	3939	0.1
12	-7	5230	5.4
13	1	6911	0.9
14	3	3811	x
15	-6	x	2.7
16	5	4511	7.2

Additional structures
No.	SMILES	Mtb hypoxia inh	Mtb hypoxia inh growth	PrP 5UTR inh	ugtP null kill
17	O=C(CSc1ccc(-c2nc3ccccc3[nH]2)cn1)N1CCN(C(=O)c2ccco2)CC1	2	14	-11	0
18	Cc1cnc(NC(=O)c2nn(C)cc2[N+](=O)[O-])s1	-10	-6	-19	5
19	CN(C)S(=O)(=O)c1ccc(C(=O)OCC(=O)Nc2ccccc2OC(F)F)cc1	-4	-1	-7	-3
20	O=C(O)c1ccc(-c2noc(-c3cccc(F)c3)n2)cc1	0	8	-102	-2
21	CC(Oc1ccccc1)C(=O)N1CCC2(CC1)Oc1ccc(F)cc1C(=O)C21CC(c2ccc(Cl)cc2)=NO1 (stereo unspecified)	-7	9	-6	-4
22	O=C(CNC(=O)C(c1ccccc1)c1ccccc1)NN=Cc1cccnc1	4	4	x	12
23	Cc1ccccc1C(=O)Nc1cccc(-c2ccc3nncn3n2)c1	-7	-8	-25	5
24	COc1ccc(C=NNC(=O)Nc2cccc3nsnc23)cc1	-10	-8	x	-3

No.	BJeLR lethal	Bead autofluor	RN4220 kill
17	-9	9233	6.6
18	0	3938	1.1
19	1	23884*	2.4
20	11	4171	2.2
21	-5	4007	-2.6
22	x	x	0.6
23	5	4856	4.9
24	x	x	-4.7

Going on with the list:
No.	SMILES	Mtb hypoxia inh	Mtb hypoxia inh growth	PrP 5UTR inh	ugtP null kill
25	CCOc1ccc(-n2c(SC(C)C)nc3c(c2=O)SCC3)cc1	11	6	-8	9
26	NS(=O)(=O)c1ccc(CNC(=O)c2cccc(S(=O)(=O)N3CCc4ccccc43)c2)cc1	9	2	-4	-2
27	COc1ccccc1Oc1ccc2c(c1)C(=O)N(c1ccc(Br)c3cccnc13)C2=O	4	1	-20	7
28	O=C(CSc1nc(Nc2ccccc2)nc(N2CCOCC2)n1)Nc1ccc2c(c1)OCCO2	7	3	-20	-6
29	CC(C)Cn1c(C(C)C)nc([N+](=O)[O-])c1Sc1ccc(Cl)cn1	3	11	-10	3
30	CCn1c(=O)n(CC)c2cc(S(=O)(=O)Nc3ccccc3C)c(C)cc21	6	8	-7	1
31	Cc1cccc(NC(=O)/C(C#N)=C\c2cn(CC(=O)O)c3ccccc23)c1	7	2	-23	-5
32	Cn1cc(S(=O)(=O)CC(=O)Nc2ccc3c(c2)OCCO3)c2ccccc21	-1	-14	-39	-3

No.	BJeLR lethal	Bead autofluor	RN4220 kill
25	2	4246	2.4
26	x	3839	8.9
27	-4	9821	-0.6
28	-1	6206	16
29	3	4307	2.8
30	6	23798*	7.8
31	-2	2811	1.3
32	0	8351	-1.7

(further entries)
No.	SMILES	Mtb hypoxia inh	Mtb hypoxia inh growth	PrP 5UTR inh	ugtP null kill
33	COC(=O)c1ccc(O)c(Sc2cc(C(=O)OC)ccc2O)c1	x	x	9	56
34	COC(=O)C1(C)NC(c2ccc(O)cc2)C2C(=O)N(c3ccc(C)cc3)C(=O)C21 (stereo unspecified)	5	1	-45	1
35	Cc1ccc(N2C(=O)C3NN=C(C(=O)OCc4ccccc4)C3C2=O)c(C)c1 (stereo unspecified)	3	2	-22	0
36	O=C(O)c1ccc(CN2C(=O)CSC2=S)cc1	6	14	-18	64
37	CCC(C)Nc1nc(SC(C(C)=O)C(C)=O)nc(N(C)C)n1 (stereo unspecified)	x	x	-6	-1
38	COc1cc(C#Cc2ccc3cc(CCCO)oc(=O)c3c2)cc(OC)c1	-1	0	-8	-9
39	CCOC(=O)C1=C(C)NC(=O)NC1c1ccc2c(c1)OCCO2 (stereo unspecified)	x	x	6	-1
40	CC(C)n1c(O)c(N=NC(=O)CNC(=O)c2cccnc2)c2ccccc21	5	-5	9	5

No.	BJeLR lethal	Bead autofluor	RN4220 kill
33	3	2545	66
34	-1	3752	2.6
35	-9	7125	5.8
36	-1	3955	11
37	6	4803	1.2
38	x	4091	14
39	-8	4214	7.3
40	-10	4522	1.5

Along the list, from the results shown:
Compounds 33–40 in Bead autofluor: 2545, 3752, 7125, 3955, 4803, 4091, 4214, 4522

Next section
No.	SMILES	Mtb hypoxia inh	Mtb hypoxia inh growth	PrP 5UTR inh	ugtP null kill
41	O=C(CC1CCCC1)N1CCCC(Nc2ccc(F)cc2)C1 (stereo unspecified)	13	1	-14	-3
42	CC(=O)Nc1ccc(C(=O)Nc2ccc(S(=O)(=O)Nc3nccc(C)n3)cc2)cc1	15	19	-11	9
43	Brc1cccc(CNn2cnnc2)c1	12	-8	-12	5
44	Cc1nnc(NC(=O)CSc2nnc(CCNC(=O)c3ccccc3F)n2C)s1	-3	-2	1	3
45	COc1ccc(-n2nc3c(c2NC(=O)c2ccc(N4C(=O)CCC4=O)cc2)CSC3)cc1	0	3	-13	5
46	CC(C)NC(=O)COC(=O)Cn1[nH]c(=O)c2ccccc2c1=O	12	10	12	7
47	CC(C)Nc1nnc(SCC(=O)NCc2ccc3c(c2)OCO3)s1	10	5	-19	5
48	COc1ccc(C)cc1NC(=O)CNc1ccccc1CN(C)C1CCCCC1	11	-5	-11	-1

No.	BJeLR lethal	Bead autofluor	RN4220 kill
41	4	4768	2.8
42	-7	u	2.1
43	0	4043	0.6
44	2	4118	6.1
45	23	3522	1.6
46	2	3317	-1.4
47	-3	2339	2.9
48	12	3914	2.5

Remaining list, next part
No.	SMILES	Mtb hypoxia inh	Mtb hypoxia inh growth	PrP 5UTR inh	ugtP null kill
49	CN(C(=O)c1ccc(Br)cc1)C1CCS(=O)(=O)C1 (stereo unspecified)	11	4	-24	2
50	Cc1cc(OC(=O)c2cc(Cl)ccc2Cl)c([N+](=O)[O-])c(=O)[nH]1	8	5	-1	12
51	CN1CCC(=NNC(=O)CN(c2cccc([N+](=O)[O-])c2)S(=O)(=O)c2ccccc2)CC1	-11	-1	-12	7
52	CN(CC(=O)Nc1ccc(Cl)c(C(F)(F)F)c1)C(=O)c1cccnc1Sc1ccccc1	-2	2	-2	-13
53	N/C(=N\c1nc2c(c(=O)[nH]1)CCCC2)Nc1ccc(Oc2ccccc2)cc1	1	9	-16	-14
54	CCOC1OC(C(N)=O)=CC(C2CC2)C1CCCO (stereo unspecified)	-3	14	x	0
55	CC1CN(CCc2ccccc2)C(=O)C1CC(=O)NCc1ccccc1 (stereo unspecified)	4	-2	x	0
56	COCC=CC1=CC2=CC(=O)C(C)(OC(=O)c3cnc4ccccc4n3)C(=O)C2=CN1C(CO)CO (stereo unspecified)	8	-3	x	0

No.	BJeLR lethal	Bead autofluor	RN4220 kill
49	-3	6321	4.6
50	2	6000	2.0
51	5	5463	1.0
52	-7	5652	-11
53	-5	7245	9.2
54	x	x	0.5
55	x	x	2.8
56	x	x	5.1

Rewritten with values under each structure: 2 of the compounds above
Below each SMILES – Mtb hypoxia inh, Mtb hypoxia inh growth, PrP 5UTR inh, ugtP null kill, BJeLR lethal, Bead autofluor, RN4220 kill
49	CN(C(=O)c1ccc(Br)cc1)C1CCS(=O)(=O)C1 (stereo unspecified)
 : 11, 4, -24, 2, -3, 6321, 4.6
50	Cc1cc(OC(=O)c2cc(Cl)ccc2Cl)c([N+](=O)[O-])c(=O)[nH]1
 : 8, 5, -1, 12, 2, 6000, 2.0

New compounds follow.
No.	SMILES	Mtb hypoxia inh	Mtb hypoxia inh growth	PrP 5UTR inh	ugtP null kill
57	O=[N+]([O-])c1cc(C(F)(F)F)ccc1N1CCCNCC1	16	12	-10	2
58	CCN1CCN(c2c(Cl)cccc2NC(=O)c2ccc3nsnc3c2)CC1	-11	-13	-4	-6
59	CC(C)CCN1CCN(Cc2ccc(C(F)(F)F)cc2)CC1CCO (stereo unspecified)	5	7	-15	1
60	S=c1[nH]c(-c2ccccc2)cs1	x	x	-4	x
61	Cn1c(SCC(=O)O)nnc1-c1ccc2ncccc2c1	6	3	x	7
62	CN(CC(=O)Nc1ccc(F)cc1)C(=O)COC(=O)c1ccccc1	-2	2	-19	5
63	Clc1ccc(-c2cc3ccccc3nc2N2CCOCC2)cc1	11	1	-20	93*
64	O=S(=O)(NCC(c1cccnc1)N1CCN(Cc2ccccc2)CC1)c1ccc(F)cc1 (stereo unspecified)	-9	-7	8	-7
65	Cc1ccc(NC(=O)CCC(=O)NN=Cc2ccc(O)cc2)cc1	3	-8	x	6

No.	BJeLR lethal	Bead autofluor	RN4220 kill
57	0	4880	9.7
58	9	3837	-2.4
59	1	4068	2.6
60	5	3598	x
61	-8	x	0.1
62	0	u	3.4
63	12	4394	2.1
64	7	4186	-2.1
65	x	x	7.0

Grouped by structure: the compounds so far with bromine (three)
No.	SMILES	Mtb hypoxia inh	Mtb hypoxia inh growth	PrP 5UTR inh	ugtP null kill
27	COc1ccccc1Oc1ccc2c(c1)C(=O)N(c1ccc(Br)c3cccnc13)C2=O	4	1	-20	7
43	Brc1cccc(CNn2cnnc2)c1	12	-8	-12	5
49	CN(C(=O)c1ccc(Br)cc1)C1CCS(=O)(=O)C1 (stereo unspecified)	11	4	-24	2

No.	BJeLR lethal	Bead autofluor	RN4220 kill
27	-4	9821	-0.6
43	0	4043	0.6
49	-3	6321	4.6

From PubChem BioAssay
